CBX7 AlphaScr = blocks human CBX7 binding to H3K27me3 peptide; O95931; AlphaScreen His6-CBX7 / biotin-H3K27me3 peptide binding; hits give low values; normalised signal (fraction of DMSO) (no concentration beside the values); 66,000 compounds, 1.1% hits; AID 1224903; in the data active means normalised signal below about 0.5;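 further: 100 nL library stock added to about 20 µL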
Target sequence (O95931 whole entry, looked up): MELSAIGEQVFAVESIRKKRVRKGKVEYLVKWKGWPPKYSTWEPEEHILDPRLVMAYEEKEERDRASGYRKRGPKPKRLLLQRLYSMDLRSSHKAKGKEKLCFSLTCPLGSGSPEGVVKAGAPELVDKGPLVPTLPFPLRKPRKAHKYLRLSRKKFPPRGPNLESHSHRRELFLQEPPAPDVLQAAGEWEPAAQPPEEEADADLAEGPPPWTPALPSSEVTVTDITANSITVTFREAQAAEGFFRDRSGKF
CBX7 AlphaScr z-score = also measured in CBX7 AlphaScr; calls as there; z-score; measured here: z-score of CBX7 signal; some inactives read as strong as hits; reference of the scale not given here;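 same signal on another scale; lower means less binding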
Starred values were filed as active, the others as inactive. An excerpt (hit frequency here may not be typical).

SMILES | CBX7 AlphaScr | CBX7 AlphaScr z-score
Cc1cccc(CCNC(=O)CCc2nc3ccccc3[nH]2)c1 | 1.17 | 2.08
CC(C)NC(=O)CCn1c(=O)[nH]c2ccsc2c1=O | 1.26 | 2
Cc1ccc2oc(-c3ccc(C)c(NC(=O)c4ccccc4C)c3)nc2c1 | 1.22 | 1.9
CCOC(=O)c1cnc2ccc(OCC)cc2c1Nc1cccc(C(=O)O)c1 | 0.965 | -0.944
CC(=O)NCCCc1nc2ccccc2n1Cc1ccccc1C | 0.993 | -0.181
Cc1oc2cc(O)ccc2c(=O)c1-c1nc2ccccc2s1 | 1.15 | 0.596
Cc1ccc(-c2ccc(CCC(=O)O)n2-c2ccc(Br)cc2)cc1 | 1 | 0.0759
c1ccc(-c2nc3cnccn3c2NC2CCCC2)cc1 | 1.23 | 1.91
c1ccc(Oc2nc(-c3cccnc3)nc3ccccc23)cc1 | 1.07 | 1.85
O=C(NCCC1=CCCCC1)c1ccc2c(c1)ncn2-c1ccc(F)c(F)c1 | 0.933 | -0.806
CN1CCN(C(=O)Cn2nc(Cc3cccnc3)c3ccccc3c2=O)CC1 | 0.964 | -0.705
COc1ccccc1CNC(=O)C1CCCN(S(C)(=O)=O)C1 (centres undefined) | 1.04 | 1.15
O=c1[nH]c2ccc(S(=O)(=O)Nc3ccc(F)cc3)cc2[nH]c1=O | 0.981 | -0.836
COc1cc(CNCCC2CCOC(C)(C)C2)ccc1O (centres undefined) | 1.03 | 0.262
CCCNC(=O)C1CCN(S(=O)(=O)c2c(C)noc2/C=C\c2ccc(OC)cc2)CC1 | 1.01 | 0.0198
COc1ccc2nc(NC(=O)CC3Oc4ccccc4NC3=O)sc2c1 (centres undefined) | 1.04 | 0.778
O=S1(=O)N=C(Nc2ccccc2C(F)(F)F)c2ccccc21 | 1.06 | 1.65
CC(=O)NC(CCS(C)(=O)=O)C(=O)Nc1nc(C)cs1 (centres undefined) | 1.02 | 0.962
COc1ccc(CN2CC(C(=O)NCCc3ccc(C)cc3)CC2=O)cc1 (centres undefined) | 1.09 | 3
COc1cc(OC)cc(-c2nnc(NC(=O)c3ccc(S(=O)(=O)N(C)Cc4ccccc4)cc3)o2)c1 | 0.0762* | -15.5*
COc1ccc(-c2c(C)nn3c(N4CCC(C(=O)N5CCCCCC5)CC4)cc(C)nc23)cc1OC | 1.02 | 0.0597
CCOc1ccc(-n2cc(-c3ccccc3)c3c(NCCCOC)ncnc32)cc1 | 0.902 | -2.79
Cc1ccc(-c2nnc(Nc3ccc(O)cc3)c3ccccc23)cc1S(=O)(=O)NC(C)(C)CO | 0.633 | -4.14
COc1cc2[nH]c(=O)n(CCCCCC(=O)NCCc3c[nH]c4ccccc34)c(=O)c2cc1OC | 0.952 | -1.23
COc1cc(NS(=O)(=O)c2ccc(NC(=O)c3ccc(-c4ccccc4)cc3)cc2)nc(OC)n1 | 1.1 | 1
C1CCN(c2nonc2-[n+]2nc3nonc3[n-]2)CC1 | 0.685 | -11.1
CCOC(=O)N1CCC(N2Cc3cccc(C(=O)NCc4ccccn4)c3C2=O)CC1 | 1.16 | 2.55
CC(C)C(=O)Nc1ncc(Cc2cccc(Cl)c2Cl)s1 | 1.01 | 0.484
COc1cc(C2C(N3C(=O)c4ccccc4C3=O)C(=O)N2c2ccc(C)cc2C)cc(OC)c1OC (centres undefined) | 0.883 | -3.22
COc1ccc(C(=O)N2CC(=O)Nc3ccc(Br)cc3C2c2ccccc2)cc1OC (centres undefined) | 0.535 | -4.45
CCCOc1ccc(C(=O)Nc2ccc3oc(-c4ccncc4)nc3c2)cc1 | 1 | 0.0469
CCc1ccccc1NC(=O)c1cc(-c2ccc(OC)c(OC)c2)on1 | 1.12 | 0.977
COc1cccc(NC(=O)N2CCC(c3ccccc3)C2)c1 (centres undefined) | 0.967 | -0.829
COc1ccc(NC(=O)CC2C(=O)N(c3ccc(F)cc3)C(=O)N2CCC(C)C)cc1 (centres undefined) | 1.05 | 1.83
COCCn1c(=O)[nH]c2cc(C(=O)N3CCN(c4cccc(C(F)(F)F)c4)CC3)ccc2c1=O | 0.987 | -0.318
Cc1nnc2ccc(NCc3ccc(Cl)cc3)nn12 | 0.971 | -0.787
Cn1c(C(=O)NCCCN2CCCC2=O)cc2sc(Cl)cc21 | 0.939 | -2.46
COc1ccc(N(CC(=O)NCc2cccnc2)S(=O)(=O)c2c(C)nn(C)c2C)cc1 | 1.21 | 1.5
CCOc1ccc(NC(=O)c2c(NCc3ccc(N(C)C)cc3)sc3c2CCC3)cc1 | 0.567 | -22.5
CCCc1ccc(-c2ccc(-c3noc(-c4ccncc4)n3)cc2)cc1 | 1.09 | 1.7
CCOC(=O)c1c(NC(=O)c2ccc(C#N)cc2)sc2c1CCCCC2 | 1.22 | 1.68
COc1ccc(-c2nc(CN3CCC(C(=O)NC4CCCc5ccccc54)CC3)c(C)o2)cc1OC (centres undefined) | 1.01 | 0.101
CCOC(=O)C1CCN(C(=O)c2cn(C)c(=O)c3cc(OC)c(OC)cc23)CC1 | 1.03 | 0.947
CC1=Nc2cc(C(=O)NCCCN3CCN(C)CC3)ccc2Sc2ccc(Cl)cc21 | 0.903 | -1.56
Cc1ccc(NC(=O)c2nn3c(C(F)(F)F)cc(-c4ccc(Br)cc4)nc3c2Cl)cc1C | 1.09 | 2.29
Cc1cc(N2CCC(C)CC2)nc2ccc(NC(=O)c3cccc(N(C)C)c3)cc12 | 0.89 | -1.19
CCN1CCc2c(sc(NC(=O)c3ccc(S(=O)(=O)N(C)C)cc3)c2C(N)=O)C1 | 1 | 0.0217
Cc1cc(C)cc(NC(=O)CCc2c(C)nc3nc(C)nn3c2C)c1 | 0.993 | -0.0308
O=C(NCCCN1CCN(c2cccc(Cl)c2)CC1)c1ccc2c(c1)NC(=O)c1ccccc1N2 | 1.01 | 0.106
COCCCNC(=O)CSc1nc(-c2ccc(Cl)cc2)[nH]c1-c1ccc(OC)cc1 | 0.946 | -1.44
CCCOc1ccc(-c2csc(NC(=O)c3ccc(S(=O)(=O)N(C)c4ccccc4)cc3)n2)cc1 | 0.899 | -1.82
COc1ccccc1-c1cc2nc(C)c(CCC(=O)NCCc3cccc(C)c3)c(C)n2n1 | 1.02 | 0.607
CCOC(=O)c1nc(Nc2cccc(F)c2)c2ccccc2n1 | 1.1 | 3.08
CC1=Nc2cc(C(=O)N3CCOCC3)ccc2Sc2ccc(Cl)cc21 | 0.855 | -2.33
O=c1cc(-c2ccncc2)[nH][nH]1 | 1.13 | 1.44
CCOc1ccccc1NC(=O)CN1C(=O)COc2ccc(Cl)cc21 | 1.09 | 2.69
O=c1c2c(nc3n1CCC3)sc1c(Br)c(O)ccc12 | 1.2 | 1.41
CC1CCN(S(=O)(=O)c2ccc3nc(-c4ccncc4)cc(C(=O)N4CCN(C)CC4)c3c2)CC1 | 1.07 | 1.2
Fc1ccccc1-c1nc(N2CCN(c3ccccn3)CC2)c2ccccc2n1 | 0.8 | -1.98
COc1cc(NC(=O)c2ccncc2)cc(-n2cnnn2)c1 | 1.11 | 0.4

Complete entries from above.
CC1=Nc2cc(C(=O)N3CCOCC3)ccc2Sc2ccc(Cl)cc21 as listed: CBX7 AlphaScr = 0.855; CBX7 AlphaScr z-score = -2.33
COc1cc(NC(=O)c2ccncc2)cc(-n2cnnn2)c1 as listed: CBX7 AlphaScr = 1.11; CBX7 AlphaScr z-score = 0.4

(list continues)
SMILES | CBX7 AlphaScr | CBX7 AlphaScr z-score
NS(=O)(=O)c1ccc(CCNC(=O)CCCn2c(=O)[nH]c3ccsc3c2=O)cc1 | 1.08 | 1.8
CC(Oc1ccc(Cl)cc1Cl)C(=O)Nc1nc2c(s1)C(=O)CC(C)(C)C2 (centres undefined) | 0.975 | -0.736
Cc1cc(Cl)ccc1OCC(=O)Nc1c(C(=O)c2ccccc2)oc2ccccc12 | 0.861 | -0.489
O=C(CC(C(=O)N1CCc2ccccc21)n1ccnc1)NCCCN1CCC(N2CCCCC2)CC1 (centres undefined) | 1.7 | 1.42
O=C(O)CCCC(=O)Nc1nc(-c2ccccc2)cs1 | 0.957 | -0.0426
COc1ccc(-n2nc3c(c2NC(=O)c2c(F)cccc2F)CSC3)cc1 | 0.873 | -2.31
CCOc1ccc(-c2cc(C(=O)NCCCN(C)Cc3ccccc3)c3ccccc3n2)cc1 | 1.09 | 4.67
CCOC(=O)c1cc(-c2ccc(OC)cc2)n(CCC(=O)NC(c2ccccc2)c2ccccc2)c1C | 0.88 | -2.84
COc1ccc(NC(=O)C(CCS(C)(=O)=O)NC(C)=O)cc1 (centres undefined) | 0.995 | -0.201
CCc1ccc2c(c1)c(=O)c(S(=O)(=O)c1ccc(F)cc1)cn2CC(=O)Nc1cccc(Cl)c1 | 0.887 | -3.68
Cc1ccccc1-c1nc(CS(=O)(=O)CC(=O)Nc2ccc(Br)cc2F)c(C)o1 | 0.972 | -0.0979
Cc1ccc(N(CC(O)CN2C(=O)NC(C)(C)C2=O)S(=O)(=O)c2ccc3ccccc3c2)cc1 (centres undefined) | 0.948 | -1.01
O=C(O)CC1(CC(=O)N2CCN(c3nc(-c4ccccc4)c4ccccc4n3)CC2)CCCC1 | 1.02 | 0.298
CCC1Oc2ccccc2N(CC(=O)NCCCN2CCCCC2C)C1=O (centres undefined) | 0.942 | -0.632
CCC(=O)Nc1nc(C)c(-c2csc(Nc3ccc(OC)cc3)n2)s1 | 0.497* | -0.594*

Laid out differently: entries from further up.
> COc1ccc(N(CC(=O)NCc2cccnc2)S(=O)(=O)c2c(C)nn(C)c2C)cc1
  CBX7 AlphaScr: 1.21
  CBX7 AlphaScr z-score: 1.5
> CCC(=O)Nc1nc(C)c(-c2csc(Nc3ccc(OC)cc3)n2)s1
  CBX7 AlphaScr: 0.497*
  CBX7 AlphaScr z-score: -0.594*
> CCCOc1ccc(C(=O)Nc2ccc3oc(-c4ccncc4)nc3c2)cc1
  CBX7 AlphaScr: 1
  CBX7 AlphaScr z-score: 0.0469
> O=C(O)CC1(CC(=O)N2CCN(c3nc(-c4ccccc4)c4ccccc4n3)CC2)CCCC1
  CBX7 AlphaScr: 1.02
  CBX7 AlphaScr z-score: 0.298

Next section.
SMILES | CBX7 AlphaScr | CBX7 AlphaScr z-score
Cc1ccc2cc(CCNS(=O)(=O)c3ccccc3)c(=O)[nH]c2c1C | 1.1 | 0.655
COCC(=O)NC1(c2nnnn2-c2cccc(Cl)c2)CCCCC1 | 1.05 | 0.539
Cc1c(C(=O)NCc2ccc(F)cc2)oc2ccc(S(=O)(=O)N3CCOCC3)cc12 | 0.996 | -0.111
CN(C(=O)c1c[nH]c2ccc(S(=O)(=O)N(C)c3ccc(Cl)cc3)cc2c1=O)C1CCCCC1 | 0.966 | -0.37
CC(C)c1cc(C(=O)Nc2cnn(Cc3ccc(F)cc3)c2)no1 | 1.03 | 0.289
COc1ccc(CC(=O)Nc2c3c(nn2-c2ccc(OC)cc2)CSC3)cc1 | 0.912 | -1.6
CCn1c(CCCNC(=O)c2ccc(OC)c(OC)c2)nc2ccccc21 | 0.975 | -0.358
O=C(Nc1ncc(Cc2ccc(Cl)cc2)s1)c1cccc2ccccc12 | 0.995 | -0.187
CCOC(=O)c1cnc2c(Cl)cccc2c1Nc1ccc(C)c(C)c1 | 0.96 | -0.253
Cc1ccc(-c2cc(C(=O)NCCc3ccc(Cl)cc3)c3ccccc3n2)cc1C | 1.5 | 3.69
COc1cc2c(cc1OC)C(C(=O)Nc1cccc(C(F)(F)F)c1)C1c3ccccc3CCN1C2=O (centres undefined) | 1.06 | 1.09
Cc1csc(NC(=O)C2CCCN2S(=O)(=O)c2ccc3c(c2)n(C)c(=O)c(=O)n3C)n1 (centres undefined) | 1.22 | 2.09
CC(C)NC(=O)C1CCCN(S(=O)(=O)c2cccs2)C1 (centres undefined) | 1.03 | 0.966
Cc1cc(N2CCN(C)CC2)nc2ccc(NC(=O)COc3ccc(Cl)cc3)cc12 | 1.05 | 1.74
CCOC(=O)c1cc(-c2ccc(OC)cc2)n(CCC(=O)Nc2ccc(C(C)C)cc2)c1C | 0.875 | -2.97
Cc1ccc(N(C)C(=O)C(NS(=O)(=O)c2ccc3c(c2)CCC(=O)N3)c2ccccc2)cc1 (centres undefined) | 0.993 | -0.287
Cc1ccccc1-c1nc(Cn2c(SCc3ccccc3F)nc3ccncc32)c(C)o1 | 1.05 | 2.2
Cc1c(C(=O)NCc2ccc3c(c2)OCO3)oc2ccc(S(=O)(=O)N3CCCC3)cc12 | 0.993 | -0.236
COc1ccc(-c2cc3nc(C)cc(C(F)(F)F)n3n2)cc1 | 1.03 | 0.583
CCOc1ccc(C2C(C(=O)Nc3ccccn3)=C(C)NC3=C2C(=O)CCC3)cc1 (centres undefined) | 1.02 | 0.246
COc1ccc(NC(=O)c2c(-c3c(F)cccc3Cl)noc2C)cc1 | 1.17 | 1.97
Cc1c(NS(=O)(=O)c2ccccc2)cccc1-c1nc2ncccc2o1 | 1.04 | 0.78
Cc1ccc(-c2nc(C(=O)NCc3ccc(Cl)cc3)c(C)o2)cc1 | 0.972 | -0.786
CC(=O)C12c3ccccc3C(c3ccccc31)C1C(=O)N(c3ccccc3C)C(=O)C12 (centres undefined) | 0.986 | -0.139
CCC(=O)N1CCc2cc(S(=O)(=O)NC(C(=O)NCCc3cccc(C)c3)C(C)C)ccc21 (centres undefined) | 1.06 | 2.33
COc1ccc(CCNS(=O)(=O)c2ccc(C3CNC(=O)C3)cc2)cc1OC (centres undefined) | 1.09 | 1.44

Screens from PubChem BioAssay.
